Rce1 inhib: inhibitors of yeast Ras-converting enzyme. actives 0.27% (n = 290,000). calls only. yeast membranes, quenched prenylated peptide cleavage fluorescence. Q03530;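 active = fall in fluorescence gain of 50% or more versus controls, with final raw signal at or below 3038400; inconclusive = same 50% fall but final raw signal above 3038400; inactive = fall in fluorescence gain under 50%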;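 note: plate controls were neutral control wells for no effect and wells lacking membranes for full effect; tested at 10 µM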
CSC inhib: blocks cancer stem cells. cancer stem cell-like cells viability, luminescence. AID 2717. inhibition, % at 7.5 µM. actives 1.1% (n = 300,000);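 active = mean at 75% or more and at least half the replicates too; inconclusive = mean and replicates disagree; tested in HMLE shEcad cells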;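 note: 0% = median of negative and 100% = median of positive control wells; the first replicate is given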
Yeast UUG start: modulators of start codon recognition fidelity in yeast | S. cerevisiae UUG-firefly luciferase reporter, luminescence/redox ratio | activity score, % at 18.7 µM | actives 0.13% (n = 350,000) | AID 602363;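 active = replicate mean at a twofold rise or more, about +100% in these data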;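 note: firefly luciferase made from a UUG start codon reports start codon fidelity; reporter light over untreated wells divided by growth signal over untreated wells; some hits fall short of that in this replicate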
eIF4H inh: inhibitors of RNA binding by human eIF4H; Q15056; eIF4H fluorescence polarization binding assay; inhibition, % at 35 µM; actives 0.94% (n = 290,000); AID 2012;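 active = 50% or more with normal probe brightness, or confirmed in later tests; inconclusive = above 50% with abnormal brightness, or retests that disagree; inactive = below 50% or failed in later tests; about a fifth of its hits are not listed in these tables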;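 note: calls also rest on retests at 20 µM and on dose response follow-up; 0% = protein and probe with vehicle and 100% = probe without protein; strong numbers were not always called active; many hits fall short of the cut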
Env fusion inh: inhibitors of HIV Env-mediated cell fusion. AID 651610. HeLa-JRFL Env/CEM21 cell fusion, luciferase. actives 1.1% (n = 360,000). inhibition, % at 12.3 µM;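 active = mean replicate inhibition score of at least 50 and every replicate individually at or above 50; inconclusive = only one of the two criteria met; inactive = mean below 50 and not all replicates reaching 50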;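 note: 0% = plate neutral controls and 100% = maraviroc near 300 nM; one replicate is shown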
MT1-MMP act inh: inhibitors of human MT1-MMP activation; P50281; HT1080 RFP-PRO-GFP cells, GFP/RFP ratio fluorescence, overnight; percent of plate control window, DMSO zero; GFP/RFP ratio change, % at 20 µM; actives 0.061% (n = 360,000); AID 651647;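 active = GFP/RFP ratio change of at least 30% with cell ATP level not reduced by more than half and red fluorescence within 50% of control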; note: strong numbers were not always called active
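Assay system: HT1080 RFP-PRO-GFP cells | Dosing: 20 µM single dose, 1% DMSO | Incubation: Cells overnight before dosing, compound overnight, 37 °C, 5% CO2 | Evaluation: GFP/RFP fluorescence ratio | Control set: DMSO-only wells and HT1080 RFP-L50D-GFP cell wells as references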
PABP polyA inh: blocks human PABP binding to poly(A) RNA | fluorescence polarization | actives 1% (n = 290,000) | inhibition, % at 35 µM | P11940 | AID 2014;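 active = 50% or more with normal probe brightness, or confirmed in later tests; inconclusive = above 50% with abnormal brightness, or retests that disagree; inactive = below 50% or failed in later tests; about a fifth of its hits are not listed in these tables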;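 note: calls also rest on retests at 20 µM and on dose response follow-up; controls were probe without protein and protein plus probe with vehicle; some compounds called inactive have numbers as strong as hits; many hits fall short of the cut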
Target sequence (P11940 whole entry, looked up): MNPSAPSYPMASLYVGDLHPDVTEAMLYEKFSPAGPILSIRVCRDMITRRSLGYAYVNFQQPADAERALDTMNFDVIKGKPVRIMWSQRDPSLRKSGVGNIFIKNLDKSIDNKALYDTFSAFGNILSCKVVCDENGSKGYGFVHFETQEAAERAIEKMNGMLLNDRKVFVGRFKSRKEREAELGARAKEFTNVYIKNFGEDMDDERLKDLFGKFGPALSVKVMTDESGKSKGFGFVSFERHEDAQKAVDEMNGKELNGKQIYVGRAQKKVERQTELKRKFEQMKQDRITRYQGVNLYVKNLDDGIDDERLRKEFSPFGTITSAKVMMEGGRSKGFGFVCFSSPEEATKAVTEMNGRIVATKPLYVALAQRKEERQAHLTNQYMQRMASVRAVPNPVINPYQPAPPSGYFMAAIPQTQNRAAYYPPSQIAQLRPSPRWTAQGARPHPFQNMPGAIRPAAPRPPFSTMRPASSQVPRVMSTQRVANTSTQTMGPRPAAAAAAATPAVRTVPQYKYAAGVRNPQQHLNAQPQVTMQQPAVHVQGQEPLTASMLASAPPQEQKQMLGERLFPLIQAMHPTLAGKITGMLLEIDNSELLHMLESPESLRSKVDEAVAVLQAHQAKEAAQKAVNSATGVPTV
eIF4H inh retest: also measured in eIF4H inh; calls as there; inhibition, %; compound at 20 µM; confirmation average;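 mean of two retest wells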
PABP polyA inh retest: also measured in PABP polyA inh; calls as there; inhibition, %; compound at 20 µM; confirmation repeats;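 mean of two retest wells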
MT1-MMP act inh RFP: also measured in MT1-MMP act inh; calls as there; RFP signal change, %; measured here: RFP expression control read;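 0 = vehicle wells; hits needed this value within 50% of zero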
* marks the source's active call; other numbers are inactive results; i = inactive; ? = inconclusive; . = no result given; & = joins results of further samples. This is a random part of the collection; 2.9% or so of the library scored in one or more.

SMILES	Rce1 inhib	CSC inhib	Yeast UUG start	eIF4H inh	Env fusion inh	MT1-MMP act inh	MT1-MMP act inh RFP	PABP polyA inh	others
CC1Cc2ccccc2N1C(=O)CSc1nnc2c(n1)[nH]c1ccc(F)cc12 (configuration not stated)	i	6	-2	2	-18	-4	-3	3
COc1ccc(S(=O)(=O)Cc2ccc(C(=O)NCc3ccccc3)o2)cc1	i	7	-9	-3	-8	1	-3	9
COc1ccccc1C1C2=C(CC(C)(C)CC2=O)Nc2nnnn21 (configuration not stated)	i	-24	.	10	-5	1	1	4
Cc1cc(O)c(-c2cc(C(=O)NCCc3ccc(S(N)(=O)=O)cc3)[nH]n2)cc1C	i	3	-21	-6	-4	3	-5	-12
CCCc1cc(=O)[nH]c(SCC(=O)Nc2cccc(S(=O)(=O)N3CCCCC3)c2)n1	.	-1	-11	.	5	3	3	.
Cc1ccc(N2CCN(C(=O)NC3CCCCC3)CC2C)cc1 (configuration not stated)	i	0	-2	7	-6	1	4	2
COc1cc(C(=O)NCC(=O)N/N=C\C(C)=C/c2ccccc2)cc(OC)c1OC	i	.	2	-8	3	1	1	5
CC(=O)Nc1ccc(-c2nc3ccc(NC(C)=O)cc3o2)cc1	i	-3	-1	-12	-38	2	5	-9
Cn1nccc1C(=O)NC(=S)Nc1cc(Cl)cc(Cl)c1	i	.	-16	4	-9	-2	-1	7
CCN(CC)c1nc(N)nc(N(c2ccccc2)c2ccccc2)n1	i	66	-35	-2	-5	-5	-3	-4
Cn1cc(-c2ccccc2C(=O)O)c(=O)c2ccccc21	i	.	-8	1	-1	2	3	3
Cc1cc(C)nc(Sc2ccc3nnc(C(F)(F)C(F)(F)C(F)(F)F)n3n2)n1	i	3	-11	-2	.	-2	2	3
Cc1ccc(C2CC(=O)Oc3cc(C)c(Br)c(C)c32)cc1 (configuration not stated)	.	.	-9	.	5	5	1	.
O=C(C1CCCCC1)N1CCN(c2nc(-c3ccc(F)cc3)cs2)CC1	i	.	.	-11	17	3	-4	10
COc1ccc(NC(=O)C2Cc3c(-c4ccco4)ccnc3O2)cc1OC (configuration not stated)	.	.	-11	.	31	10	-25	.
CC1CCc2c(nc3ncnn3c2NCCc2ccccc2F)C1 (configuration not stated)	i	2	.	-10	20	2	-11	12
CN(C)S(=O)(=O)c1ccc(N2CCCC2)c(C(=O)NCc2cccc(C(F)(F)F)c2)c1	i	13	-12	-10	-400	-6	2	-1
O=C(Nc1ccc2c(c1)CCC2)c1cnn2c1NC(c1ccco1)CC2C(F)(F)F (configuration not stated)	.	-2	-8	3	.	-2	6	22
CCC(C(=O)Nc1ccc(C(=O)Nc2ccccc2C(=O)O)cc1)c1ccccc1 (configuration not stated)	i	20	-9	14	-11	3	2	16
CC1CCC(NC(=O)c2cc3c(s2)CS(=O)(=O)C3)CC1 (configuration not stated)	.	.	9	11	.	0	2	-9
CCN(CC)c1ccc(NC(=O)CCCCC(=O)Nc2ccc(N(CC)CC)cc2)cc1	.	-3	-11	.	61*	2	3	.
CC(C)(C)c1ccc(C(=O)N/C(=C\c2ccco2)C(=O)O)cc1	i	-6	.	32	6	-6	0	9
N#Cc1ccc(CSc2nnc(-c3cccc(S(=O)(=O)N4CCCCC4)c3)o2)cc1	i	-7	-4	2	.	3	-15	-3
CC1CC(=Cc2ccc(N)cc2)C(=O)O1 (configuration not stated)	.	.	-10	.	-28	7	-1	.
O=C(CSc1ncnc2c1oc1ccccc12)Nc1cccc(Cl)c1	i	2	11	-12	-10	2	-1	4
CCCCNC(=O)C(C#N)c1nc2ccccc2nc1N1CCN(c2ccccc2F)CC1 (configuration not stated)	i	-2	-16	10	.	-18	-11	5
CCCn1c(NC(=S)Nc2ccccc2)nc2ccccc21	i	26	-6	2	15	6	-2	-6
O=c1c2ccccc2nnn1CSc1nnc(-c2cccc(S(=O)(=O)N3CCCCC3)c2)o1	i	-6	-7	0	?	-1	-4	3
CC(C)N(C(=O)N1CCC(c2nc(-c3ccncc3)no2)CC1)C(C)C	i	-2	0	-3	26	1	-9	-2
CCN1C(=O)C(CC(=O)Nc2ccc(OC)cc2)N(CCCN2CCN(c3ccc(OC)cc3)CC2)C1=S (configuration not stated)	i	19	-2	-4	-12	-1	-9	-21
CCCN(Cc1cc2cc(C)ccc2[nH]c1=O)C(=O)c1ccccn1	i	-19	-8	-2	10	2	1	-5
Cn1nc(OCCOc2ccccc2)ccc1=O	i	2	0	-3	.	-3	-2	-5
O=C(/C=C/c1ccncc1)c1cc(Cl)ccc1O	i	25	-16	-9	-5	-14	0	14
O=C(N[C@H](Cc1ccc(Cl)cc1)C(=O)O)OCC1c2ccccc2-c2ccccc21	i	30	-13	1	-20	4	5	-16
CCOC(=O)c1[nH]cnc1C(=O)Nc1ccccc1OC	i	-4	.	1	-19	5	2	7
CC1CCN(CC(=O)NC2CCCCC2)CC1	i	.	-23	-8	-4	1	4	6
NC(=O)[C@@H]1CC2(CC(c3cccc(NC(=O)CC(c4ccccc4)c4ccccc4)c3)=NO2)CN1C(=O)[C@@H]1CCC(=O)N1 (some centres not stated)	i	-7	19	-5	22	1	1	-3
COc1ccc(CN2CCN(C(=O)c3ccc(-c4ccccc4)cc3)CC2)c(OC)c1OC	i	-5	.	-9	-5	1	-15	-16
CCN=C1SC(CC(=O)NC(N)=O)C(=O)N1CC (configuration not stated)	i	-18	-19	-1	-7	-1	0	-1
CCOc1ccc(S(=O)(=O)N2CCN(Cc3ccc4c(c3)OCO4)CC2)cc1C	i	.	11	-3	7	2	4	0

Ordered by length of the SMILES (high to low): part of the list above
SMILES	Rce1 inhib	CSC inhib	Yeast UUG start	eIF4H inh	Env fusion inh	MT1-MMP act inh	MT1-MMP act inh RFP	PABP polyA inh	others
CN(C)S(=O)(=O)c1ccc(N2CCCC2)c(C(=O)NCc2cccc(C(F)(F)F)c2)c1	i	13	-12	-10	-400	-6	2	-1
Cc1cc(O)c(-c2cc(C(=O)NCCc3ccc(S(N)(=O)=O)cc3)[nH]n2)cc1C	i	3	-21	-6	-4	3	-5	-12
O=C(N[C@H](Cc1ccc(Cl)cc1)C(=O)O)OCC1c2ccccc2-c2ccccc21	i	30	-13	1	-20	4	5	-16
Cc1cc(C)nc(Sc2ccc3nnc(C(F)(F)C(F)(F)C(F)(F)F)n3n2)n1	i	3	-11	-2	.	-2	2	3
COc1cc(C(=O)NCC(=O)N/N=C\C(C)=C/c2ccccc2)cc(OC)c1OC	i	.	2	-8	3	1	1	5
CCN(CC)c1ccc(NC(=O)CCCCC(=O)Nc2ccc(N(CC)CC)cc2)cc1	.	-3	-11	.	61*	2	3	.
CCCCNC(=O)C(C#N)c1nc2ccccc2nc1N1CCN(c2ccccc2F)CC1 (configuration not stated)	i	-2	-16	10	.	-18	-11	5
CC(C)(C)c1ccc(C(=O)N/C(=C\c2ccco2)C(=O)O)cc1	i	-6	.	32	6	-6	0	9
CCCN(Cc1cc2cc(C)ccc2[nH]c1=O)C(=O)c1ccccn1	i	-19	-8	-2	10	2	1	-5
COc1ccccc1C1C2=C(CC(C)(C)CC2=O)Nc2nnnn21 (configuration not stated)	i	-24	.	10	-5	1	1	4
Cc1ccc(C2CC(=O)Oc3cc(C)c(Br)c(C)c32)cc1 (configuration not stated)	.	.	-9	.	5	5	1	.
CCOC(=O)c1[nH]cnc1C(=O)Nc1ccccc1OC	i	-4	.	1	-19	5	2	7
O=C(/C=C/c1ccncc1)c1cc(Cl)ccc1O	i	25	-16	-9	-5	-14	0	14
CC1CC(=Cc2ccc(N)cc2)C(=O)O1 (configuration not stated)	.	.	-10	.	-28	7	-1	.

Later entries
SMILES	Rce1 inhib	CSC inhib	Yeast UUG start	eIF4H inh	Env fusion inh	MT1-MMP act inh	MT1-MMP act inh RFP	PABP polyA inh	others
Cc1cccc2cc3cccc(C)c3nc12	i	-5	.	10	-11	2	3	17
Cc1ccc(S(=O)(=O)Nc2ccc(C(=O)Nc3cc(C)on3)cc2)cc1	i	-7	-8	0	-7	1	0	-1
CCOc1ccccc1N(CC(=O)NC(C)(C)C)C(=O)CCC(=O)Nc1nccs1	i	-15	-5	-7	8	17	1	0
Cc1ccc2nc(-c3cccc(S(=O)(=O)N4CCCC4)c3)cn2c1	i	-1	-23	-10	-24	-1	-6	-6
Cc1cc(C)n(-c2ccc(Cl)c(C(=O)O)n2)n1	i	-12	30	1	.	2	6	-6
O=C(CCCC(=O)N1CCN(c2ccccc2F)CC1)c1ccccc1	i	5	2	-3	-50	1	2	6
N#Cc1c(N2CCCCC2)nc(N2CCCCC2)c2c1CCN(Cc1ccccc1)C2	i	-1	.	86	.	-18	-9	110	eIF4H inh retest=5;PABP polyA inh retest=-1
Cc1ccc(S(=O)(=O)NCC(=O)N(CC(=O)NCc2ccco2)Cc2ccccc2)cc1	i	-23	-5	2	8	1	1	-1
CCN(CC)C(=S)Nc1ccc(OC(F)F)cc1	i	-14	.	-6	-17	1	-2	3
CN(C)S(=O)(=O)c1ccc(Cl)c(NC(=O)COC(=O)CCC2CCCCC2)c1	.	-10	-2	.	-3	3	5	.
CC(=O)Nc1ccc(S(=O)(=O)Nc2nc3ccccc3nc2Nc2cccc(S(N)(=O)=O)c2)cc1	i	3	5	-4	0	-2	0	0
CCn1c(C)nc2cc(C(=O)NNC(=O)CN(C)S(=O)(=O)c3ccc(NC(C)=O)cc3)ccc21	.	-16	-32	.	-2	-1	5	.
CC1CC(C)(C)NC(=S)N1CC(=O)NCc1ccccc1Cl (configuration not stated)	i	11	.	-1	.	3	5	-1
NC1=NN=C(c2ccc3c(c2)OCCO3)CS1	i	5	-73	-10	29	6	3	2
COc1ccc(CNC(=O)C2CCCN(c3nccc(C)n3)C2)cc1 (configuration not stated)	i	17	-27	-6	-40	1	2	-6
COc1ccc(CN(C)CC(O)COC(c2ccc(OC)cc2)c2ccc(OC)cc2)cc1 (configuration not stated)	i	.	-18	-6	27	-2	5	12
O=C(CN1CCN(c2ccccc2)CC1)Nc1scc2c1c(=O)oc1ccccc12	i	-2	-14	5	0	7	4	-7
COc1ccc(S(=O)(=O)N(C)C[C@H]2Oc3ccc(NC(=O)c4ccncc4)cc3C(=O)N([C@H](C)CO)C[C@@H]2C)cc1	.	.	3&0	.	-19	2	7	.
N#CCCn1nc(Cc2cccc3ccccc23)c(C#N)c1N	i	.	-14	.	20	4	-7	.
CCOc1cc(OCC)cc(C(=O)NC(=S)Nc2cccc(C(F)(F)F)c2)c1	i	2	.	1	.	2	1	0
Cc1ccnc(NC(=O)CCC(=O)N(CC(=O)NCc2ccc(F)cc2)c2cccc(F)c2)c1	i	-11	-2	-9	-18	4	7	4
Cc1ccc(Cl)cc1-c1cc(C(=O)NCc2ccc(C(F)(F)F)cc2)[nH]n1	.	.	-24	.	24	2	-8	.
CN(CC(=O)Nc1ccc(Cl)cc1)C(=O)CNC(=O)c1ccc2ccccc2c1	i	-8	-12	-7	21	1	1	-13
CC(NC(=O)CCc1c[nH]c2ccccc12)c1ccccc1 (configuration not stated)	i	-2	-1	5	-32	2	-2	7
